# LANA-H2B inh – blockers of LANA interaction with H2A/H2B – biochemical, FP readout, HTS, primary screen; AID 2629, 2010; cell-free LANA-H2A/H2B peptide, fluorescence polarization; inhibition, % (concentration not given with the values); Protein LANA1 (Human herpesvirus 8 type P (isolate GK18)), Q9QR71; hit rate 0.6% among 320,000; in the data active = inhibition mostly above about 10%, no sharp cut-off; inactive = mostly below about 6.7%;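 also: stock transfer was 7.5 nL into about 10 µL; 0% = median of vehicle wells and 100% = median of positive control wells; one replicate is shown; the record names a cut of 25% in any replicate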
# HNF4A DNA FP – change in binding of human HNF4A to DNA, primary screen, biochemical, fluorescence polarization, FITC-DNA; AID 1224865, 2016; activity change, % at 10 µM; hit rate 0.3% among 360,000; 1 h; Hepatocyte nuclear factor 4-alpha (Homo sapiens), P41235; in the data active = activity change above about 30%, passing the limit was not always enough;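 also: controls were the assay level and a saturating level of protein; the project sought stronger binding though the title names inhibitors; some compounds called inactive have numbers as strong as hits; positive values seem to mean higher polarization but the record does not say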
# UCH37 DUB inh – inhibitors of human UCH37 deubiquitinase, primary screen, biochemical, Ub-AMC cleavage, fluorescence | Ubiquitin carboxyl-terminal hydrolase isozyme L5 (Homo sapiens), Q9Y5K5 | purified proteasome/UCH37 | inhibition, % (no concentration beside the values) | hit rate 0.33% among 330,000 | AID 588478, 2011;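 active = mean of two replicates above 20%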;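 also: 0% = compound-free wells with enzyme and 100% = wells lacking proteasome; stock transfer was 100 nL into about 20 µL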
#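 Assay system: Proteasome-bound UCH37. Buffer or medium: pH 7.4 Tris-HCl (50 mM) with ovalbumin, ATP-MgCl2, DTT. Incubation: 30 min preincubation with enzyme, 25 min cleavage at room temperature. Measured by: fluorescence, ex 355 nm, em 460 nm. Read-out basis: percent inhibition. Control set: wells without proteasome as full block, compound-free enzyme plus substrate as uninhibited.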
# FGF22 binding – binders of human FGF22 protein, primary screen, FGF22 synaptogenesis inhibitor project, biophysical, thermal shift, single point; hit rate 1.5% among 340,000; recombinant FGF22 thermal shift, SYPRO orange fluorescence; percent of sucrose octasulfate shift, DMSO zero; calls only at 9.99 µM;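 active = melting point raised past a set limit in the mean and every replicate; three in four hits are not shown here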
# Target sequence (Q9HCT0 whole entry, looked up): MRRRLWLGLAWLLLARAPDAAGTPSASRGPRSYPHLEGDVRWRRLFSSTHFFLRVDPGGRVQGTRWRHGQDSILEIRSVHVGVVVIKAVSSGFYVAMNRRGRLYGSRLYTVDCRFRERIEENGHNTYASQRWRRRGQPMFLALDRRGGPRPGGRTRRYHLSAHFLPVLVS
# Ecoli growth – E. coli growth inhibition, primary screen, OD600. hit rate 0.21% among 330,000. OD600 absorbance (concentration not given with the values). Escherichia coli growth, 23 h; stronger effect = lower value;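 active = OD600 absorbance below the run mean of sample wells minus 3.6 SD, in any replicate, cut at about 0.56 in these data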;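 also: stock transfer was 300 nL into about 60 µL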
# ALR inh – inhibitors of human ALR sulfhydryl oxidase, primary screen, biochemical, H2O2 detection, HRP-luminol luminescence, single point. inhibition, % (concentration not given with the values). purified ALR, DTT oxidation. hit rate 3.8% among 290,000. FAD-linked sulfhydryl oxidase ALR (Homo sapiens), P55789;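 active = mean and each replicate at 75% or more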;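 also: stock transfer was 7.5 nL into about 7.5 µL; 0% = neutral wells and 100% = wells with inactivated enzyme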
# Target sequence (P55789 whole entry, looked up): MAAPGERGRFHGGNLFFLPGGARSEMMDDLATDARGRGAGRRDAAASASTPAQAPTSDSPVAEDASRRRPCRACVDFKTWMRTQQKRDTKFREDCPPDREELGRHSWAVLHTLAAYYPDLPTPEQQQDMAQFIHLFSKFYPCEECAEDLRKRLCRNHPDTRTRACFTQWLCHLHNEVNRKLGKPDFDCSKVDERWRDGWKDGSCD
# Beta2AR agonist – beta2AR agonists driving receptor internalization, primary screen, cell-based, FAP fluorogen, flow cytometry; Beta-2 adrenergic receptor (Homo sapiens), P07550; Am2.2-beta2AR cells; reference of the scale not given here; response, % (no concentration beside the values); AID 504454, 2011; hit rate 0.43% among 340,000;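 active = response above a set limit, near 3 SD of response in nonfluorescent compounds, cut at about 42% in these data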;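 also: stock transfer was 100 nL into about 11 µL; a reference agonist was the positive control; negative values mostly stem from fluorescent compounds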
# Target sequence (P07550 whole entry, looked up): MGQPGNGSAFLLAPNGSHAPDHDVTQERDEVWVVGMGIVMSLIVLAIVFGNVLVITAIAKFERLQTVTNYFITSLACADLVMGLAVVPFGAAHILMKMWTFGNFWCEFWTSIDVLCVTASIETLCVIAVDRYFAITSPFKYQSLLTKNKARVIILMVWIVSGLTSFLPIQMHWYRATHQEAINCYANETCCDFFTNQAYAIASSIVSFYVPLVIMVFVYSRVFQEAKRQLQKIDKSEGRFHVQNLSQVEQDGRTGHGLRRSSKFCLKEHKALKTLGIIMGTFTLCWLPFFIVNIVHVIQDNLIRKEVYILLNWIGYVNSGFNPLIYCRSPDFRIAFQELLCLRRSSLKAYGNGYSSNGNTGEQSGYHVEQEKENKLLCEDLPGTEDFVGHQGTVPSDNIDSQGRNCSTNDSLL
# * marks the source's active call; other numbers are inactive results; i = inactive; . = no result given; + = active, no number.
SMILES,LANA-H2B inh,HNF4A DNA FP,UCH37 DUB inh,FGF22 binding,Ecoli growth,ALR inh,Beta2AR agonist
CCc1ccccc1NC(=O)CCCSc1nc2ccccc2s1,10,-0.6,2.2,i,0.7,-10,1
Cc1ccc(CNC(=O)c2cc(S(=O)(=O)N3CCOCC3)cn2C)cc1,-6.3,1.0,5.3,i,0.66,-1,-3
Cc1nnc(NC(=O)c2c(F)cccc2F)s1,4.3,2.2,1.6,i,0.71,35,0
COc1ccc(S(=O)(=O)N(Cc2ccco2)Cc2cc3ccccc3[nH]c2=O)cc1,1.2,0.8,0.5,i,0.69,-2,-9
OCC[C@H]1C[C@@H](O)[C@H](O)[C@]2(CCCCO2)O1,-3.0,-2.3,2.7,i,.,1,0
COCCNC(=S)N/N=C(\C)c1ccc(C)c([N+](=O)[O-])c1,-2.6,-0.3,.,.,.,67,6
CCOC(=O)C(C)Oc1ccccc1C1NC(=O)NC(C)=C1C(=O)Nc1ccc(C)c(C)c1 (centres undefined),-1.3,2.0,1.9,.,0.68,-6,10
Oc1c(Cl)cc(Cl)cc1C=Nc1cc(C(F)(F)F)ccc1N1CCc2ccccc2C1,-4.9,-4.1,-2.3,i,0.64,3,15
COc1ccc(N2CCN(C(=O)CNC(=O)c3ccccc3Cl)CC2)cc1,13,-3.1,2.4,i,0.67,.,-1
Cc1ccc(-c2nn(-c3ccccc3)cc2CN(C)C(=O)CCC(=O)O)cc1C,-1.5,-0.6,0.6,i,0.63,11,-2
O=C(Cn1ccc(C(F)(F)F)n1)NNC(=O)c1cccnc1,3.1,1.0,1.4,i,0.68,0,-6
Cc1cccc(S(=O)(=O)NCCc2ccccc2)c1,4.6,-2.5,-0.6,i,0.66,-2,0
Cc1csc(SCC(=O)c2cc(C)n(Cc3cccs3)c2C)n1,-1.0,2.8,3.6,.,0.74,66,3
Cc1ccccc1CNC(=O)C(=O)NCCC1CCCCN1S(=O)(=O)c1ccccc1 (centres undefined),4.6,-1.9,.,i,.,-47,2
COc1cccc(C(=O)Nc2nc3ccc(S(C)(=O)=O)cc3s2)c1,4.5,0.0,-1.6,i,0.69,-8,-3
Cc1onc(-c2ccccc2)c1C(=O)Nc1ccc(S(=O)(=O)NC(C)(C)C)cc1,-4.3,-2.6,6.0,i,0.72,-4,11
O=C(Nc1ccccc1F)c1ccc(CSc2ncccn2)cc1,0.1,-2.0,2.7,i,0.68,7,5
COc1ccc(C(=O)c2c(NC(C)=O)sc3c2CCN(C(=O)OC(C)(C)C)C3)cc1,2.8,5.9,.,i,.,16,-8
COCCN(C(=O)COC(=O)/C=C/c1ccccc1Cl)c1c(N)n(Cc2ccccc2)c(=O)[nH]c1=O,0.4,-2.4,0.3,i,0.64,-54,1
CCCCn1c(N)c(N(CCOC)C(=O)c2cccc(S(=O)(=O)N3CCCCCC3)c2)c(=O)[nH]c1=O,4.4,1.0,4.1,.,0.69,0,-4
O=C(CCCN1C(=O)/C(=C\c2ccccc2)SC1=S)Nc1ccc(O)cc1C(=O)O,-1.1,-3.4,14,.,0.69,36,-5
O=C(COc1ccc(/C=N/NS(=O)(=O)c2ccccc2)cc1)Nc1ccc(F)cc1,5.6,0.2,.,.,.,-9,10
CC(=O)Nc1cccc(C(=O)N2CCC(n3nccc3NC(=O)CC(C)C)CC2)c1,4.5,3.3,1.4,+,0.69,1,-1
Cc1c(C2(O)CCCCC2)[nH]c2cc(C(F)(F)F)ccc12,-1.4,-0.2,-0.5,i,0.68,0,4
O=C(Oc1ccc2c(=O)c(Oc3ccc4ccccc4c3)coc2c1)c1ccco1,-1.7,-1.3,-12,.,0.69,-1,3
CN(CCN1CCOCC1)Cc1nc(-c2ccc3c(c2)OCO3)no1,0.9,1.6,3.8,i,0.69,.,-11
COc1ccc(NC(=O)CN2CCN(CC(=O)Nc3ccccc3Cl)CC2)cc1,-2.0,-0.5,0.0,.,0.7,-9,3
O=c1[nH]c2ccccc2nc1C(Nc1ccccc1)c1ccccc1 (centres undefined),-4.5,-3.4,3.8,i,0.73,2,3
O=c1[nH]c(CN2CCN(S(=O)(=O)c3ccc4c(c3)OCCO4)CC2)nc2sc3c(c12)CCCC3,2.4,1.0,1.4,.,0.7,-3,-9
Cc1cc(OCC(=O)NCCCN2CCCC2=O)c2c(C)c(C)c(=O)oc2c1,-7.3,-0.1,-140,i,0.71,19,4
CC(=O)/C=C(\C)NCCNc1c(F)c(F)c(CO)c(F)c1F,11,0.9,2.6,.,0.8,.,-4
Cc1ccc(CCNC(=O)CN2CCN(Cc3ccccc3F)C2=O)cc1,-1.2,5.5,0.2,.,0.75,-1,8
COc1ccc(S(=O)(=O)N2CCCCCC2)cc1NC(=O)Cc1ccc(OC)c(OC)c1,3.8,2.5,0.7,i,0.71,.,-62
NNC(=O)CCn1c2ccccc2c2ccccc21,-1.9,-0.5,.,i,.,-6,0
CC(C)(C)CN1CCN(Cc2cc3ccccc3[nH]2)CC1CCO (centres undefined),-1.6,0.3,0.7,i,0.66,-6,13
Cc1ccc2c(COC(=O)c3ccccc3Br)cc(=O)oc2c1,-0.5,-0.1,-0.5,i,0.7,-17,-10

# Structures listed so far marked active in FGF22 binding:
canonical_smiles | LANA-H2B inh | UCH37 DUB inh | FGF22 binding | ALR inh | Beta2AR agonist
CC(=O)Nc1cccc(C(=O)N2CCC(n3nccc3NC(=O)CC(C)C)CC2)c1 | 4.5 | 1.4 | + | 1 | -1

# Additional structures
SMILES,LANA-H2B inh,HNF4A DNA FP,UCH37 DUB inh,FGF22 binding,Ecoli growth,ALR inh,Beta2AR agonist
Cc1c(C(=O)N2CCOCC2)sc2nc(-c3ccccc3)cn12,-1.4,0.8,2.8,.,0.68,12,-3
FC(F)(F)c1cccc(-n2cc(-c3ccccc3)[nH]c2=S)c1,-0.3,3.0,7.4,i,0.63,0,-1
CCC1(C)Cc2nc(Cl)c(C#N)cc2CO1 (centres undefined),1.6,-4.9,-3.6,i,0.65,8,6
CC1(CC(=O)N/N=C/c2cc(Br)c(O)cc2O)OCCO1,0.5,-1.2,.,.,.,.,13
O=C(c1ccc(Cl)cc1)N1CCN(CCOc2ccccc2)CC1,-1.1,-1.9,4.1,i,0.65,-22,-4
Cc1cc([N+](=O)[O-])nn1CC(=O)NCc1nc2ccccc2[nH]1,-2.0,-4.7,4.3,i,0.74,-8,-2
COc1ccccc1-c1nc(-c2ccc(C)nc2OC)no1,-2.4,1.0,-0.7,.,0.66,.,5
COc1cccc(NC(=O)c2ccccc2N2C(=O)C3C4C=CC(C4)C3C2=O)c1 (centres undefined),-2.6,3.9,2.8,i,0.71,-16,-2
Cc1cc(NC(=O)CSc2nnc(-c3ccccc3)c(-c3ccccc3)n2)no1,-1.8,2.8,0.9,i,0.75,.,-12
CCC(=O)NCCc1nc2cc(NC(=O)c3ccc(OC)cc3)ccc2n1C,3.6,0.8,0.5,i,0.66,2,3
O=C(O)Cn1c(SCCOc2ccccc2F)nc2ccccc21,7.9,-2.7,4.4,.,0.72,-11,-15
CCC(C)NC(=O)c1ccccc1NC(=O)c1ccccc1N(C)S(C)(=O)=O (centres undefined),1.6,3.9,-2.5,.,0.67,2,0
CCOC(=O)c1[nH]c2ccc(OC)cc2c1NC(=O)NC(C)C,1.4,3.8,-52,.,0.7,-5,3
C[C@H]1CC[C@@]2(O[C@H](CCO)C[C@@H](O)[C@@H]2O)O1,0.0,1.1,1.1,i,.,1,-5
O=C(O)/C=C/c1ccccc1Oc1ccc(Cl)cc1Cl,-62,-3.2,-0.9,i,0.66,-8,5
CCOc1ccc(CCNC(=O)CCC(=O)Nc2ccc3nc(N4CCN(C)CC4)cc(C)c3c2)cc1OCC,-1.8,0.5,-47,i,0.71,2,3
O=C(Nc1ccc(C(F)(F)F)cc1)C1(c2ccccc2)CC1,-7.1,0.1,1.3,i,0.7,-1,-6
CCOc1ccc(CCNC(=O)CN2C(=O)NC3(CCCCCC3)C2=O)cc1OCC,4.1,-0.9,1.1,i,0.66,.,10
CCOC(=O)N1CCN(C(=O)c2ccc(NS(=O)(=O)c3ccc(F)cc3)cc2)CC1,-3.4,0.2,-2.0,i,0.66,-6,0
CC(=NO)c1ccc2c(c1)Cc1cc([N+](=O)[O-])ccc1-2,.,-0.6,.,i,.,.,11
CCCCN(C(=O)Cn1nnc2ccccc21)C(C(=O)NCCOC)c1cccs1 (centres undefined),-0.9,2.4,3.2,.,0.73,-6,4
CC(=O)Nc1ccc(NC(=O)C2CCN(C(=O)c3cccs3)CC2)cc1,-1.4,-1.9,-0.9,i,0.67,21,-7
O=C(NCc1ccccn1)c1ccc(S(=O)(=O)Nc2ccccc2F)cc1,0.4,1.8,2.1,i,0.68,-2,-3
Cc1cc(NC(=O)c2ccc(Cl)cc2Cl)n(-c2ccccc2)n1,2.1,-2.5,0.8,i,0.67,10,-13

# Random excerpt: 5 entries already listed
SMILES,LANA-H2B inh,HNF4A DNA FP,UCH37 DUB inh,FGF22 binding,Ecoli growth,ALR inh,Beta2AR agonist
CCOC(=O)N1CCN(C(=O)c2ccc(NS(=O)(=O)c3ccc(F)cc3)cc2)CC1,-3.4,0.2,-2.0,i,0.66,-6,0
O=C(NCc1ccccn1)c1ccc(S(=O)(=O)Nc2ccccc2F)cc1,0.4,1.8,2.1,i,0.68,-2,-3
CC(=NO)c1ccc2c(c1)Cc1cc([N+](=O)[O-])ccc1-2,.,-0.6,.,i,.,.,11
CCOC(=O)c1[nH]c2ccc(OC)cc2c1NC(=O)NC(C)C,1.4,3.8,-52,.,0.7,-5,3
O=C(O)/C=C/c1ccccc1Oc1ccc(Cl)cc1Cl,-62,-3.2,-0.9,i,0.66,-8,5

# Next section.
SMILES,LANA-H2B inh,HNF4A DNA FP,UCH37 DUB inh,FGF22 binding,Ecoli growth,ALR inh,Beta2AR agonist
O=S(=O)(N/N=C\C=C\c1ccccc1)c1ccc(Br)cc1,-1.2,-2.9,.,.,.,13,-5
NNC(=O)c1ccc(COCC(F)(F)C(F)F)cc1,-5.9,-3.1,1.3,i,0.67,5,-6
O=C(CC12CC3CC(CC(C3)C1)C2)NCc1ccncc1,3.8,-0.5,0.0,.,0.62,3,7
Cc1cc(N2CCN(C(=O)c3ccco3)CC2)nc(-c2ccccc2)n1,4.6,1.2,-0.2,.,0.7,12,-4
Cc1ccc(S(=O)(=O)N(C)C)cc1NC(=O)COC(=O)/C=C/c1ccc2ccccc2n1,-4.9,2.2,2.3,i,0.68,-6,-9
CC(=O)NC(CCS(C)(=O)=O)C(=O)N1CCc2ccccc21 (centres undefined),0.6,-1.3,1.2,.,0.65,-13,7
CCSc1nc(-c2ccc(OC)cc2)cc(-c2ccccc2)c1C#N,-0.6,-3.5,-3.1,i,0.71,-3,-17
O=C(CNC(=S)N(Cc1ccc(F)cc1)C1CCCCC1)NC1CC1,1.2,1.0,1.2,.,0.74,19,-8
CC(C)(C)c1ccc(C(=O)NCCC(=O)NNC(=O)COc2ccc(F)cc2)cc1,-6.0,1.5,3.4,i,0.75,-3,-6
O=C(O)c1ccc2c(=O)n3c(nc2c1)/C(=C/c1ccccc1Br)CC3,0.1,2.3,-29,i,0.65,21,9
CC1CN(Cc2ccccc2)c2nc3c(c(=O)n(CC(=O)O)c(=O)n3C)n2C1 (centres undefined),-2.8,-1.2,1.5,i,0.65,16,-5
CN(C)S(=O)(=O)N1CCN(C(=O)N2CCCCCC2)CC1,-2.7,1.1,4.0,.,0.71,-5,11
NC(=O)CC(NC(=O)Cc1cccc2ccccc12)c1ccc(NCCOc2ccccc2)c([N+](=O)[O-])c1 (centres undefined),-5.4,4.5,.,i,.,6,36
CCc1cc2c(SCC(=O)Nc3ccc(NC(C)=O)cc3)ncnc2s1,-2.6,2.9,-3.7,i,0.68,-3,2

# Only part of the results is shown; rates above refer to the full screens.
